Biofilm kill mix – mixture kills Candida albicans biofilm cells; C. albicans biofilm persisters + clotrimazole, fluorescence viability; primary screen in compound mixtures of four per well; inhibition, % at 7.6 µM; 0.02% of 120,000 active;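 active = inhibition above 30.3% in the primary screen of four-compound pools, then above 30% when the compound was retested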;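 note: compounds exposed to preformed 24 h biofilms for 48 h; the number belongs to the whole pool; some results filed as inactive read as strong as hits; inactives centre near 12; 0% = biofilm with clotrimazole alone and 100% = kill control; retested singly at about 60 µM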
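Test system: C. albicans CAF4-2 wild-type biofilms; buffer or medium: RPMI/MOPS medium, pH 7.0; schedule: 24 h biofilm formation, then 48 h compound exposure, 37 °C; detection: Alamar Blue fluorescence; measure: percent inhibition of biofilm viability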
The depositor's hits bear a star. Not all compounds are listed; rates above refer to the full screens.

SMILES	Biofilm kill mix
CC(C)Oc1ccc(/C=N/NC(=O)c2ccc(N(Cc3ccccc3)S(C)(=O)=O)cc2)cc1	6
C#Cc1ccc([C@H]2C=C(C(=O)Nc3ccccc3)O[C@@H](OCc3ccc(CO)cc3)C2)cc1	13
CO/N=C(\C(=O)N[C@@H]1C(=O)N2C(C(=O)O)=C(COC(N)=O)CS[C@H]12)c1ccco1	19
CCCn1nnnc1NCc1ccc(F)cc1	23
CC(=O)Nc1cc2c(cc1NC(=O)Cn1nnc(-c3ccc(C)o3)n1)OCCO2	12
CCCCSc1nnc2c(n1)OC=Nc1ccccc1-2	18
Cc1ccc(-c2nnn(CC(=O)N(CCN3CCOCC3)C(C(=O)NC(C)(C)C)c3ccco3)n2)cc1 (stereo unspecified)	2
Cc1ccccc1OCC(=O)OC(C(=O)c1ccccc1)c1ccccc1 (stereo unspecified)	-6
COCCCNC(=O)c1cc(S(=O)(=O)N2CCOCC2)ccc1SCc1cccc(OC)c1OC	11
O=C(NC1CCCCCC1)c1nnc(Cc2ccc(Cl)cc2)o1	12
C/C(=N\NC(=O)c1cccc(N/N=C(\C)c2ccccc2)c1)c1ccccc1	11
CCCn1c(SCC(=O)N2CCCCC2)nnc1-c1ccccn1	11
CCOC(=O)N1CCC(N(CCN(C)C)C(=S)Nc2cc(C)cc(C)c2)CC1	14
O=S(=O)(c1ccccc1)N1N=C(c2ccccc2)CC1c1ccccc1 (stereo unspecified)	15
CC(=O)Nc1ccc2c(c1)ncn2C	19
C=CCn1c(O)c(N=NC(=S)Nc2cccc(OC)c2)c2ccccc21	12
O=C(O)c1ccc2c(c1)C(=O)N(c1cccc(C(=O)/C=C/c3ccccc3)c1)C2=O	5
C/C(Cn1cnc([N+](=O)[O-])n1)=N\NC(=O)c1ccc(Br)cc1	11
CC1CCN(CC(=O)N2c3ccccc3CCc3ccccc32)CC1	12
Cc1c(C(=O)NCc2ccc3c(c2)cc(C)n3C)cccc1[N+](=O)[O-]	15
CC(C)S(=O)(=O)CC(=O)c1ccc(Cl)cc1	18
Cc1ccc(NC(=S)NC(=O)/C=C/c2ccco2)c(O)c1	20
CCNC(=O)c1ccc(CSc2ccc(Cl)cc2)cc1	-9
CSc1cccc(NC(=O)C(=O)NCc2ccccc2)c1	17
O=C(Nc1ccc([N+](=O)[O-])cc1)C(=O)Nc1cccc(C(=O)O)c1	22
c1ccc(-c2csc(-n3cccn3)n2)cc1	9
COc1cccc(C2NC(=O)c3ccccc3O2)c1OCc1ccccc1F (stereo unspecified)	17
Cc1ccc2cccc(Oc3ccc([N+](=O)[O-])cc3[N+](=O)[O-])c2n1	7
CCN(CC)C(=O)Nc1c(C)n(C)n(-c2ccccc2)c1=O	9
CCO[C@@H]1OC(C(=O)O)=C[C@H](c2coc3ccccc3c2=O)[C@H]1CCCO	19
COc1ccc(CCNC(=O)CN(CCc2ccccc2)S(C)(=O)=O)cc1	14
Cc1ccc(COC(=O)CCc2nc3ccccc3c(=O)[nH]2)cc1	22
O=C(N1CCOCC1)C12CC3CC(C1)CC(n1cnc(Cl)n1)(C3)C2	15
O=C(N/N=C/c1cc([N+](=O)[O-])cc(Br)c1O)C12CC3CCC(CC(C3)C1)C2	22
Cc1nn(-c2ccccc2)c(Cl)c1/C=N/NC(=O)C1COc2ccccc2O1 (stereo unspecified)	18
Cc1cccc(-n2c3nc(=O)[nH]c(=O)c-3cc3cc([N+](=O)[O-])ccc32)c1	10
Cc1ccc(S(=O)(=O)N2CCN(C(=O)COc3ccc(C)nc3[N+](=O)[O-])CC2)c(C)c1	17
O=C(COC(=O)CCN1C(=O)/C(=C\C=C\c2ccccc2)SC1=S)Nc1cc(F)ccc1F	1
Cc1ccc(-c2nc(NCc3ccc(F)cc3)n(S(C)(=O)=O)n2)cc1	7
O=C1CCC(C(=O)OCC(=O)c2c[nH]c3ccccc23)=NN1	9
Cc1cc(C(=O)Nc2ccc(N3CCOCC3)c(Cl)c2)c(C)o1	16
CCN(C(=O)COC(=O)c1nn(-c2ccccc2)c(=O)c2ccccc12)C1CCS(=O)(=O)C1 (stereo unspecified)	46
CC1(C)CC2CC(C)(CN2C(=O)c2ccc([N+](=O)[O-])cc2)C1 (stereo unspecified)	6
Cn1cc([N+](=O)[O-])c(C(=O)Nc2ccc(-c3nc4ccccc4[nH]3)cc2)n1	1
CNC(=O)CS(=O)CC(=O)Nc1cc(OC(C)C)c(Cl)cc1Cl (stereo unspecified)	13
O=C(CNC(=O)c1ccc(Cl)cc1)OC1CCOC1=O (stereo unspecified)	4
Cc1ccc(CNC(=O)CCc2c(C)nc3c(c(C)nn3-c3ccc(C)cc3)c2C)cc1	14
Oc1ccccc1/C=N/Nc1nc2ccccc2o1	17
COc1cccc(-n2c(-c3ccc4[nH]c(C)c(C)c4c3)n[nH]c2=S)c1	14
CCN(CC)CCCNc1nc(N)c([N+](=O)[O-])c(NCCO)n1	17
N/C(=N\OC(=O)CCCOc1ccccc1)c1ccccn1	5
O=C(COC(=O)c1cc(Br)c(Br)s1)NCCC1=CCCCC1	11
C=CCn1c(C)cc(C2=NNC(=NC(C)(C)C)SC2)c1C	20
O=C1/C(=C/c2ccco2)N=C(N2CCCCC2)N1c1ccccc1	10
N#C/C(=C/c1ccc(N2CCCCC2)o1)C(=O)Nc1ccc2ccccc2c1	17
O=C(Nc1ccccc1)c1cc(S(=O)(=O)N2CCSCC2)ccc1Cl	18
CNc1nnc(Sc2ncccc2[N+](=O)[O-])s1	12
CC(=O)NS(=O)(=O)c1ccc(NC(=O)c2cccc(S(=O)(=O)N3CCc4ccccc43)c2)cc1	1
O=C(NNC(=O)c1cccc2ccccc12)c1ccc(-c2ccccc2)cc1	12
CC(=O)Nc1cccc(NC(=O)CSc2ncc(-c3ccccc3)[nH]2)c1	4
Next section.
SMILES	Biofilm kill mix
COc1cc(C2Sc3ccccc3NC3=C2C(=O)OC3)cc(OC)c1OC (stereo unspecified)	20
CCOC(=O)Nc1oc2ccccc2c(=O)c1C	14
Cc1cc(=O)oc(C)c1C(=O)Nc1cccnc1Cl	11
CN(C)Cc1ccccc1Sc1ccc(Br)cc1	5
CCN(CCn1cccn1)C(=O)CC1C(=O)NCCN1CC1CCCCC1 (stereo unspecified)	1
O=C(CCl)Nc1c[nH]c(=O)[nH]c1=O	9
CC(=O)c1ccc(S(=O)(=O)N2Cc3ccccc3CC2C(=O)O)cc1 (stereo unspecified)	17
Nc1nnc(SCC(=O)OCC(=O)NC23CC4CC(CC(C4)C2)C3)s1	1
O=C1c2ccccc2NC(c2ccc(O)cc2)N1/N=C/c1ccc(O)cc1 (stereo unspecified)	6
CCc1ccc(Nc2ccc(C(N)=O)cc2[N+](=O)[O-])cc1	6
Cc1ccc(N2C(=O)CC(Sc3ccccc3C(=O)O)C2=O)c([N+](=O)[O-])c1 (stereo unspecified)	-11
O=C(Nc1cccnc1)c1ccc(N2CCCC2)c([N+](=O)[O-])c1	21
Cc1oc(-c2ccccc2Cl)nc1CN(C)C(C)c1ccon1 (stereo unspecified)	14
CCN(CC(=O)NCc1cccs1)C(=O)CCc1c[nH]c2ccccc12	9
COc1cc(/C=C2\SC(=S)N(NS(=O)(=O)c3ccccc3)C2=O)cc(OC)c1OC	24
O=C(COC(=O)c1cc(S(=O)(=O)N2CCCCC2)ccc1N1CCOCC1)NC1CCS(=O)(=O)C1 (stereo unspecified)	14
CCc1ccc(-c2nc(CCl)cs2)cc1	-4
O=C(N/N=C/c1ccncc1)c1cccc(NC(=O)c2ccccc2Cl)c1	8
COC(=O)N/N=C/c1cn(Cc2ccccc2Cl)c2ccccc12	11
CC(C(=O)O)n1nnc2ccccc21 (stereo unspecified)	-6

In another format: 2 of the compounds above.
> CCc1ccc(Nc2ccc(C(N)=O)cc2[N+](=O)[O-])cc1
  Biofilm kill mix: 6

> CN(C)Cc1ccccc1Sc1ccc(Br)cc1
  Biofilm kill mix: 5

Later entries:
SMILES	Biofilm kill mix
COc1cc2cc(CN(Cc3cccs3)C(=S)Nc3ccccc3)c(=O)[nH]c2cc1OC	21
CN(C)S(=O)(=O)c1ccc(NC(=O)/C=C/c2ccccc2Cl)cc1	5
Cc1ccccc1Nc1nc(N)nc(-c2oc3ccccc3c2C)n1	12
C=CCNC(=S)N(Cc1ccccc1)Cc1ccccc1	1
CN1CCC(=O)N([C@H](CSc2ccc(Br)cc2)c2ccccc2)CC1	11
Clc1ccccc1Cc1noc(CN2CCCCC2CCc2ccccn2)n1 (stereo unspecified)	13
C/C(=N\Nc1ccc(Cl)c(C(=O)O)c1)c1ccc[nH]1	17
COc1ccc(NC(=O)c2csc(Cc3ccc(Cl)cc3)n2)cc1	7
CCOc1ccc(C(=O)NNC2CC(=O)N(CCc3ccccc3)C2=O)cc1OC (stereo unspecified)	3
COc1ccccc1C(O)(c1ccccc1)C(CN1CCOCC1)c1ccccc1 (stereo unspecified)	9
CC1=NN(C(=O)c2ccccc2Cl)C(O)(c2cccnc2)C1 (stereo unspecified)	9
COc1ccc(CNCCCO)cc1OC	10
O=c1c(-c2cnn(-c3ccccc3)c2)coc2cc(O)ccc12	9
CC1CCCN(CC(O)COC(c2ccccc2)c2ccccc2)C1 (stereo unspecified)	8
Cc1ccc(C)c(C(=O)COC(=O)c2cc([N+](=O)[O-])ccc2NCCO)c1	7
CC(C)CC(=O)Nc1ccc(C(=O)Cn2c(=O)oc3ccccc32)cc1	1
O=C(C1CCN(S(=O)(=O)c2cnc[nH]2)CC1)N(CCc1ccccc1)Cc1ccccc1	15
CCc1ccc(NC(=O)N2CCN(c3ccccc3)CC2)cc1	4
Cn1cnnc1SCC(=O)Nc1ccc(Cl)cn1	6
Cc1cc(Cl)ccc1-n1c(-c2cccnc2)n[nH]c1=S	25
COc1ccc(O)c(C(=O)c2cnn(C(=O)c3cccc(S(=O)(=O)N4CCOCC4)c3)c2)c1	12
O=C(COC(=O)/C=C/c1ccc(OC(F)F)cc1)Nc1ccc(S(=O)(=O)N2CCCC2)cc1	10
Cc1cc(NC(=O)COC(=O)C2=COCCO2)c([N+](=O)[O-])cc1C	6
CCCOc1ccc(CN2CCOCC2)cc1OC	15
CC(C)S(=O)(=O)C1=NSC2=NC(=O)/C(=C\c3ccc(-c4cccc(C(=O)O)c4)o3)C(=N)N21	10
COC(=O)C1=C(C)OC(N)=C(C#N)C1c1cc2cccc(C)c2nc1Cl (stereo unspecified)	10
CC1(C)C(C=C(Cl)Cl)C1C(=O)Nc1ccc([N+](=O)[O-])cc1 (stereo unspecified)	9
Cc1ccc(N(CC(=O)NC(C)(C)C)C(=O)CS(=O)CC(=O)Nc2ccc(F)cc2)cc1 (stereo unspecified)	14
CC1CCCN(S(=O)(=O)c2ccc(C(=O)Nc3nnc(-c4ccccn4)o3)cc2)C1 (stereo unspecified)	6
CC(O)CNc1nc2c(c(=O)n(Cc3ccc(Cl)c(Cl)c3)c(=O)n2C)n1C (stereo unspecified)	12
O=C1C=C(NC2=CC3OC(c4ccccc4)OCC3OC2=O)CCC1 (stereo unspecified)	6
O=C(Cn1cc(C(F)(F)F)ccc1=O)Nc1cc(S(=O)(=O)N2CCOCC2)ccc1Cl	-5
CC(C)c1nc(CNC(=O)CCc2nnc(-c3ccsc3)o2)cs1	1
CCC(C)[C@H](NC(=O)N1CCCCCC1)C(=O)O (stereo partly specified)	27
C#CCOCCOCCOCCNc1nc(N2CCN(C(=O)[C@H](C(C)C)n3cc(CCO)nn3)CC2)nc(N2CCN(C(=O)[C@H]([C@@H](C)CC)n3cc(CCCN=C(N)N)nn3)CC2)n1	12
CC(=O)Oc1ccc(C(=O)Cc2ccccn2)c(O)c1	19
O=C(COc1ncnc2cc(Cl)ccc12)c1ccccc1	30
N#CC1(C#N)CC(C=O)=C(N)C1(C#N)CC(=O)C12CC3CC(CC(C3)C1)C2 (stereo unspecified)	18
CC(=O)Nc1ccc(C(=O)OCC(=O)NCc2ccc(Cl)cc2)cc1	12
Cc1nnc(N/N=C\c2ccc(-c3cccc(C(=O)O)c3)o2)n1N	0
CCc1nnc(NS(=O)(=O)c2ccc(NC(=O)/C=C/c3ccccc3Cl)cc2)s1	14
COc1cc(NC(=O)c2cc3ccccc3cc2O)c(OC)cc1Cl	22
CCCN(CC(=O)Nc1ccccc1C)C(=O)CCl	4
CC(=O)Nc1ccc(/C=N/NC(=O)CCN2CCN(c3ccccc3)CC2)cc1	6
CCCn1nc(Oc2nc(N(C)C)nc(N(C)C)n2)ccc1=O	22

Grouped by structure: the entries above containing an aryl methoxy group (15)
SMILES	Biofilm kill mix
COCCCNC(=O)c1cc(S(=O)(=O)N2CCOCC2)ccc1SCc1cccc(OC)c1OC	11
C=CCn1c(O)c(N=NC(=S)Nc2cccc(OC)c2)c2ccccc21	12
COc1cccc(C2NC(=O)c3ccccc3O2)c1OCc1ccccc1F (stereo unspecified)	17
COc1ccc(CCNC(=O)CN(CCc2ccccc2)S(C)(=O)=O)cc1	14
COc1cccc(-n2c(-c3ccc4[nH]c(C)c(C)c4c3)n[nH]c2=S)c1	14
COc1cc(C2Sc3ccccc3NC3=C2C(=O)OC3)cc(OC)c1OC (stereo unspecified)	20
COc1cc(/C=C2\SC(=S)N(NS(=O)(=O)c3ccccc3)C2=O)cc(OC)c1OC	24
COc1cc2cc(CN(Cc3cccs3)C(=S)Nc3ccccc3)c(=O)[nH]c2cc1OC	21
COc1ccc(NC(=O)c2csc(Cc3ccc(Cl)cc3)n2)cc1	7
CCOc1ccc(C(=O)NNC2CC(=O)N(CCc3ccccc3)C2=O)cc1OC (stereo unspecified)	3
COc1ccccc1C(O)(c1ccccc1)C(CN1CCOCC1)c1ccccc1 (stereo unspecified)	9
COc1ccc(CNCCCO)cc1OC	10
COc1ccc(O)c(C(=O)c2cnn(C(=O)c3cccc(S(=O)(=O)N4CCOCC4)c3)c2)c1	12
CCCOc1ccc(CN2CCOCC2)cc1OC	15
COc1cc(NC(=O)c2cc3ccccc3cc2O)c(OC)cc1Cl	22

Bioassay records (PubChem)
